Autofluor counter: compound fluorescence in toxin protease inhibitor counterscreen; actives 3.1% (n = 360,000); fluorescence intensity (test concentration not listed); compound autofluorescence counterscreen, microsphere flow cytometry; hits give high values;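 active = at least 3 SD above the mean of all compounds, about 16000 in these data; inconclusive = too few beads counted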;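 note: 100 nL of 1 mM stock went into each well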
BJeLR lethal: MLPCN primary cell-based screen for lethality selective to Ras in HRASV12 cells; BJeLR (HRASV12) viability, CellTiter-Glo ATP luminescence, 48 h; reference of the scale not given here; inhibition, % (concentration not given with the values); actives 0.17% (n = 300,000); AID 1554, 2009;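 active = replicate mean above 50%; inconclusive = above 50% but judged a plate artefact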;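 note: 50 nL library stock added to about 25 µL; numbers are from one replicate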
Mtb hypoxia rep: PubChem AID 1159583. M. tuberculosis hypoxia-regulated fluorescent reporter, fluorescence. fluorescence inhibition, % (test concentration not listed). actives 0.1% (n = 300,000);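 active = 35 to 45% if threefold the growth effect, above 45% if 1.5-fold the growth effect; inactive = the rest, general growth blockers included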;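 note: wells of about 50 µL received 100 nL stock; 0% = vehicle wells and 100% = reference inhibitor wells; whole bacteria with a GFP reporter of the hypoxia response; strong numbers were not always called active; many hits fall short of the cut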
RN4220 kill: growth inhibition of S. aureus RN4220, primary screen, OD600; AID 1259311, 2017; inhibition, % (concentration not given with the values); 16 h; actives 0.33% (n = 330,000);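 active = z-score of -3 or lower and OD600 up to 0.18 on both plates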;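 note: plate controls were untreated cells for no effect and reference antibiotic for full effect; stock transfer was 100 nL into about 80 µL; one replicate is shown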
PrP 5UTR inh: inhibition of PrP 5' UTR reporter expression. cell-based PrP 5' UTR mRNA reporter, plate reader. inhibition, % (concentration not given with the values). actives 0.35% (n = 340,000). AID 488862, 2010;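 active = every replicate at 50% or more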;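 note: 0 = median of the neutral control wells; tested in H4 reporter cells; numbers are from one replicate; inactives centre near -14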
ugtP null kill: growth inhibition of ugtP-null S. aureus, primary screen, RN4220 ugtP deletion, OD600; 16 h; some inactives read as strong as hits; growth inhibition, % (concentration not given with the values); actives 0.54% (n = 330,000); AID 1259309, 2017;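 active = z-score under -3 and OD600 up to 0.15 on both plates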;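 note: plate controls were untreated wells for no effect and antibiotic for full effect; wells of about 80 µL received 100 nL stock; the first replicate is given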
Mtb hypoxia rep growth: recorded beside Mtb hypoxia rep, whose call it bears; growth inhibition, %; measured here: M. tuberculosis growth (absorbance);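 0% = vehicle and 100% = reference antibiotic; read after six days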
* = called active by the depositor; ? = inconclusive; . = not tested or not shown; & = joins results of further samples.

1) CC(C)(C)OC(=O)C(Cc1ccccc1)NC(=O)c1nc[nH]c1C(=O)NCC(=O)OCc1ccccc1 (configuration not stated)
2) O=C(/C=C/c1ccc(Cl)cc1)Nc1ccc(N2CCOCC2)cc1
3) Cc1cccc(C=Nn2c(C)cc(C)c(C#N)c2=O)c1
4) CC(=O)c1ccc(Nc2nc(NCCO)nc(OC(C(F)(F)F)C(F)(F)F)n2)cc1
5) COc1ccc(NC(=O)Nc2ccc3c(c2)CCC3)cc1OC
6) CCOc1ccc2nc(SCC(=O)NC3CCCc4ccccc43)sc2c1 (configuration not stated)
assay / compound	1	2	3	4	5	6
Autofluor counter	.	4070	.	3461	2197	2012
BJeLR lethal	.	10	.	-3	6	-12
Mtb hypoxia rep	-2	-4	-7	3	13	-1
Mtb hypoxia rep growth	1	3	1	0	3	1
RN4220 kill	13	-3.5	2.8	0.8	2.4	-4.7
PrP 5UTR inh	.	-12	.	-17	-41	-10
ugtP null kill	-8	-1	1	-12	4	9

7) Cn1c(SCc2ccccc2Br)nc2ccccc2c1=O
8) CCC(=O)Nc1c2c(nc3c1CCC3)CCCC2
9) CCN(CC)C(=O)C1CCN(Cc2ccc(OCc3ccccc3)c(OC)c2)CC1
10) O=C1CN(C(=O)COc2c(F)c(F)cc(F)c2F)c2ccccc2N1
11) O=C(NC1CCCCCC1)C1CC(=O)N(Cc2ccccc2)C1 (configuration not stated)
12) C=CCN(C(=O)CCC(=O)Nc1cc(C)on1)C(C(=O)NC(C)(C)C)c1ccc(OC)cc1 (configuration not stated)
assay / compound	7	8	9	10	11	12
Autofluor counter	.	9941	4031	5394	8259	3801
BJeLR lethal	3	15	3	6	-3	-3
Mtb hypoxia rep	13	9	-5	-3	-4	10
Mtb hypoxia rep growth	4	5	-9	0	4	-2
RN4220 kill	3.2	6.3	-0.9	1.8	-6.2	5.9
PrP 5UTR inh	-2	-7	-15	-19	-14	-22
ugtP null kill	-6	9	2	-1	-8	7

Structures from the list above that contain sulfur (2):
6) CCOc1ccc2nc(SCC(=O)NC3CCCc4ccccc43)sc2c1 (configuration not stated)
7) Cn1c(SCc2ccccc2Br)nc2ccccc2c1=O
assay / compound	6	7
Autofluor counter	2012	.
BJeLR lethal	-12	3
Mtb hypoxia rep	-1	13
Mtb hypoxia rep growth	1	4
RN4220 kill	-4.7	3.2
PrP 5UTR inh	-10	-2
ugtP null kill	9	-6

Next compounds
13) COC(=O)C1C2CCC(C2)C1C(=O)OCC(=O)c1ccccc1 (configuration not stated)
14) CC(C)Oc1ccc(CNC(=O)CCCN2C(=O)C(c3ccccc3)Oc3cccnc32)cc1 (configuration not stated)
15) Cn1c(SCC(O)c2ccccc2)nnc1-c1ccc2ccccc2c1 (configuration not stated)
16) COc1ccccc1N(C(=O)NCc1ccccc1)C1=NCC(C)S1 (configuration not stated)
17) O=C1C2C3C=CC(C3)C2C(=O)N1N=Cc1ccc(-c2ccccc2[N+](=O)[O-])o1 (configuration not stated)
18) COc1ccccc1-c1ccc(/C=C2\C=CC(=O)O2)o1
assay / compound	13	14	15	16	17	18
Autofluor counter	4192	4957	6244	4373	.	6158
BJeLR lethal	8	-5	5	-1	.	7
Mtb hypoxia rep	3	-1	-6	-1	3	6
Mtb hypoxia rep growth	8	3	10	12	3	11
RN4220 kill	-3.2	-1.1	-2.6	-3.9	7.4	14
PrP 5UTR inh	-22	-23	-6	-5	.	-45
ugtP null kill	-2	9	7	10	10	1

19) Cc1cccc(-c2noc(-c3ccoc3C)n2)c1
20) COc1ccc(CN(C)C2c3ccccc3-c3ccccc32)cc1
21) O=C(c1ccco1)N1CCN(c2ccc([N+](=O)[O-])cc2Cl)CC1
22) OCCC1CN(Cc2ccc3c(c2)CCO3)CCN1C1CCCC1 (configuration not stated)
23) O=C(Nc1cccc(Br)c1)c1cc(S(=O)(=O)N2CCOCC2)cs1
24) Cc1onc(C(=O)Nc2cccnc2Cl)c1[N+](=O)[O-]
assay / compound	19	20	21	22	23	24
Autofluor counter	1964	1975	4766	4337	5530	2336
BJeLR lethal	0	-20	12	-10	0	3
Mtb hypoxia rep	-10	8	18	6	3	1
Mtb hypoxia rep growth	-8	7	5	6	1	-3
RN4220 kill	6.3	-5.4	8.8	3.5	1.1	5.7
PrP 5UTR inh	-93	-16	-34	-12	-10	-11
ugtP null kill	9	11	1	0	4	15

25) COc1ccccc1C=NNC(=O)C(=O)NCc1cccnc1
26) O=C(CCCNC(=O)c1ccc(Cl)cc1)Nc1ncccc1O
27) Cc1c[nH]c2cccc(OCC(CNC(C)(C)C)OC(=O)c3ccccc3)c12 (configuration not stated)
28) CCC(C)Nc1nc(N)c([N+](=O)[O-])c(NCCO)n1 (configuration not stated)
29) CCCOC1CCCN(C(=O)c2cc(COc3cncc(Cl)c3)on2)C1 (configuration not stated)
30) CCN(CC)P(=O)(NC(=O)C(Cl)(Cl)Cl)N(CC)CC.[Cl-].[Cl-].[Cl-].[Nd+3]
assay / compound	25	26	27	28	29	30
Autofluor counter	.	4114	3851	5943	6956	?
BJeLR lethal	.	-4	5	6	11	-5
Mtb hypoxia rep	6	4	8	0	10	7
Mtb hypoxia rep growth	8	-10	2	4	7	2
RN4220 kill	1.4	4.7	1.2	2.4	7.0	16
PrP 5UTR inh	.	-2	-20	-19	-61	-6&-7
ugtP null kill	-1	6	3	5	1	4

31) COc1ccc(C2=NN(C(C)=O)CC2c2cccc([N+](=O)[O-])c2)cc1 (configuration not stated)
32) CCOC(=O)c1sc2ncn(/N=C/c3ccc(O)c(OC)c3)c(=O)c2c1C
33) Cc1ccsc1C=NNC(=O)Cc1cccn1C
34) CN(C)NC(=O)C(NC(=O)c1ccccc1)C12CC3CC(CC(C3)C1)C2 (configuration not stated)
35) COc1ccc(S(=O)(=O)N2CCOCC2)cc1C(=O)NC1CCCCC1
36) CCCc1cc(=O)oc2cc(OCC(=O)N(C)C)c(Cl)cc12
assay / compound	31	32	33	34	35	36
Autofluor counter	4417	4393	.	2022	?	2482
BJeLR lethal	-4	4	.	0	-3	5
Mtb hypoxia rep	2	.	6	3	5	14
Mtb hypoxia rep growth	-6	.	10	-6	7	5
RN4220 kill	0.7	.	6.4	-0.9	-0.8	7.4
PrP 5UTR inh	-9	-3	.	-15	1	11
ugtP null kill	-2	.	2	-2	5	5

37) COC(=O)C1=C(C)NC(C)=C([N+](=O)[O-])C1c1ccccc1C(F)(F)F (configuration not stated)
38) CCn1nc(NC(=O)c2cccnc2)c2cc3ccccc3nc21
39) CN(C)S(=O)(=O)c1cccc(C(=O)OCC(=O)NCc2ccc3c(c2)OCO3)c1
40) COc1ccccc1CNC(=O)C/C(C)=N/NC(=O)Cc1ccc(OC)c(OC)c1
41) CCN(Cc1ccccc1)S(=O)(=O)c1ccc(C(=O)N(CCCN(C)C)c2nc3cc4c(cc3s2)OCCO4)cc1
42) COc1nc(OC)nc(N2CCC(C(=O)NCC3CCCCC3)CC2)n1
assay / compound	37	38	39	40	41	42
Autofluor counter	4368&5711	8515	2657	2673	6155	?
BJeLR lethal	0	-4	4	-13	-11	9
Mtb hypoxia rep	-5&-1	6	3	.	15	-2
Mtb hypoxia rep growth	4&14	6	6	.	4	-5
RN4220 kill	3.1&1.4	0.6	-3.6	.	-1.4	-0.9
PrP 5UTR inh	-22&-29	-1	-11	-27	-21	-12
ugtP null kill	-16&-15	-9	-8	.	10	3

43) Nc1c(N(CCC2=CCCCC2)C(=O)COc2ccc([N+](=O)[O-])cc2)c(=O)[nH]c(=O)n1Cc1ccccc1
44) Cc1ccc(C=NNc2ncnc3nc[nH]c23)cc1
45) CC(=NNC(=O)c1cc2ccccc2cc1O)c1ccc2c(c1)OCO2
46) CC1CCN(C(=O)CSc2nnc(-c3cc4ccccc4cc3O)n2Cc2ccco2)CC1
47) CN(C)C=NC(=O)c1cn(-c2ccc(F)cc2)c(=O)c2ccccc12
48) COc1cccc(C(=O)NNC(=O)c2cccnc2)c1
assay / compound	43	44	45	46	47	48
Autofluor counter	3861	.	.	11537	4334	5412
BJeLR lethal	.	.	.	6	.	3
Mtb hypoxia rep	0	-1	-12	2	-6	-5
Mtb hypoxia rep growth	3	5	0	11	10	10
RN4220 kill	13	-2.0	-4.8	-0.4	4.9	0.5
PrP 5UTR inh	-9	.	.	-33	-6	1
ugtP null kill	9	12	-2	-14	5	4

49) CC1CCc2[nH]c3ccc(C(=O)N(C)CC(=O)Nc4ccc(F)cc4)cc3c2C1 (configuration not stated)
50) COC(=O)C1=C(N)Oc2c(c(=O)oc3ccccc23)[C@]12C(=O)N(C)c1ccccc12
51) Cc1nn(-c2ccccc2)c(Cl)c1/C=N/O
52) COc1ccc(-n2c(Cc3cccn3C)nnc2SCC(=O)Nc2ccc(C)cc2C)cc1
53) Cc1cccc(N2CCN(C(=O)C3CC(=O)N(C4CCCC4)C3)CC2)c1C (configuration not stated)
54) Cc1csc(SCC(=O)Nc2oc(C)c3c(C)n[nH]c(=O)c23)n1
assay / compound	49	50	51	52	53	54
Autofluor counter	5226	2798	2639	5754	?	.
BJeLR lethal	-8	-4	0	-3	3	9
Mtb hypoxia rep	1	.	.	.	-5	1
Mtb hypoxia rep growth	-10	.	.	.	0	-4
RN4220 kill	-5.5	1.1	.	0.0	-4.7	4.0
PrP 5UTR inh	-20	-14	-39	4	-19	-6
ugtP null kill	-8	4	.	10	-3	7

55) O=C(CCNS(=O)(=O)c1ccc(Cl)cc1)N1CCN(Cc2ccccc2)CC1
56) CN(CCc1ccccn1)C(=O)CCNC(=O)Cn1cnc2ccccc2c1=O
57) Cc1ccc(S(=O)(=O)N2CC3CCCC2C3)cc1 (configuration not stated)
58) Cc1ccnc(NCc2c(O)ccc3ccccc23)c1
59) CCN1CC2C3C(=O)N(Cc4ccccc4)C(=O)C3[C@](CC)(C1=O)N2C(=O)c1ccc(F)cc1 (some centres not stated)
60) COc1ccc(-c2nc(CS(=O)CC(=O)NC3CCCCC3)c(C)o2)cc1OC (configuration not stated)
assay / compound	55	56	57	58	59	60
Autofluor counter	10752	2356	4677	8158	.	5778
BJeLR lethal	0	8	11	-12	.	3
Mtb hypoxia rep	0	17	12	-2	20	-6
Mtb hypoxia rep growth	-1	13	4	-3	4	-4
RN4220 kill	4.6	5.4	4.1	-2.7	7.3	-3.6
PrP 5UTR inh	-11	-9	-4	3	.	-8
ugtP null kill	4	3	10	-10	2	-5

61) CCOc1ccccc1OCc1nn2c(COc3ccccc3)nnc2s1
62) CCOC(=O)c1ccc(N2C(=O)c3n[nH]c(-c4ccco4)c3C2c2cccc([N+](=O)[O-])c2)cc1 (configuration not stated)
63) Cc1cc2nccc(-c3ccc(Cl)cc3Cl)n2n1
64) O=C(Nc1ccccc1-c1nc2ccccc2[nH]1)c1sc2ccccc2c1Cl
65) S=C(Nc1cc(Cl)ccc1Cl)Nn1cnnc1
66) COc1ccc(C(=O)Oc2cccnc2)cc1OC
assay / compound	61	62	63	64	65	66
Autofluor counter	16185*	7998	3267	.	.	5825
BJeLR lethal	-1	-1	-10	-8	3	-15
Mtb hypoxia rep	12	-9	16	8	2	5
Mtb hypoxia rep growth	7	-13	-4	5	-9	7
RN4220 kill	7.9	-10	1.3	-3.4	0.3	3.1
PrP 5UTR inh	0	-25	-25	.	-3	-7
ugtP null kill	16	47	3	13	0	-3

This is a random part of the collection, and some 4.1% of all compounds hit somewhere here.
